gsp antagonist: qHTS for Antagonists of gsp, the Etiologic Mutation Responsible for Fibrous Dysplasia/McCune-Albright Syndrome: qHTS; gsp-mutant cells, cAMP HTRF, 30 min; control for the full effect not named in the record; Potency, µM (titrated, usually from 76.9 µM), for inactives: at the highest dose activity change, negative = inhibition, actives largely listed as inhibitors; hit rate 0.4% among 340,000; AID 624288, 2012; active = falling curve of any shape with a large fitted effect; inconclusive = falling curve, mostly with a smaller effect; inactive = flat or rising curve; cell line not stated here;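 note: intracellular cAMP measured with PDE inhibitor Ro 20-1724 present during compound exposure; potency is the fitted concentration of half-maximal effect; % is set by controls: 0 for no effect and ±100 for the full control effect; nearly all actives have a fitted effect of over 65% in size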
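Measurement of cellular cAMP by homogeneous time-resolved fluorescence following a 30 min compound exposure at 37C. The PDE inhibitor […] was present throughout; the assay buffer was DPBS with 0.05% BSA and 0.005% Tween 20.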
D2 agonist: Beta-Arrestin HTS for Positive Allosteric Modulators of the Human D2 Dopamine Receptor: Agonists. D(2) dopamine receptor (Homo sapiens), P14416. DiscoveRx PathHunter D2 beta-arrestin, luminescence, 90 min; 100% = 57 uM dopamine signal. activation, % (test concentration not listed). hit rate 0.084% among 360,000. AID 624465, 2012; in the data active = activation above about 40%; inconclusive = about 15% to 40%; inactive = below about 15%; note: compound concentration not given in the record; the text of the record calls up to 30% inactive
Target sequence (P14416 whole entry, looked up): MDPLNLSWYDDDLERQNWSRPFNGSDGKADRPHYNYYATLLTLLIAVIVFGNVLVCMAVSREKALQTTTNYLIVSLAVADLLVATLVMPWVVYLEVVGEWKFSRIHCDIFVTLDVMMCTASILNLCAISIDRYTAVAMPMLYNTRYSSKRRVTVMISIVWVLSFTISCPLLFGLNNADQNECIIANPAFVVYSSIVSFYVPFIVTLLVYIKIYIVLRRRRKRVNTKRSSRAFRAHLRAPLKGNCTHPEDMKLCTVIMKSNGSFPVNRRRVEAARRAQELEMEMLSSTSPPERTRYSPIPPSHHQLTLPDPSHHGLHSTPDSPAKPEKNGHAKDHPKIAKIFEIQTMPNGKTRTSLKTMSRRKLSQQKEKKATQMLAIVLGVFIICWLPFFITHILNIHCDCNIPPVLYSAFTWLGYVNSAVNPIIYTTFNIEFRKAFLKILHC
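Agonist mode: compounds alone added to overnight-plated D2 PathHunter cells for 90 min at 37 C, with 57 uM final dopamine (EC100) defining full response. Beta-arrestin recruitment detected by chemiluminescent reagent, read after 1 h at ambient temperature.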
PINK1 modulator: A Quantitative High throughput Screen to Identify Chemical Modulators of PINK1 Expression | PINK1 immunofluorescence, high-content cytometry, 24 h | Potency, µM (series often up to 76.6 µM), for the others: at the top dose activation (PINK1 increase), most hits filed as activators | hit rate 0.2% among 410,000; active = well fitted activation curve with a large enough effect; inconclusive = small, poorly fitted or top-dose-only effect; inactive = flat fitted curve, though single readings scatter; cell line not stated here;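 note: potency is the fitted concentration of half-maximal effect; % of control where 0% means no effect; nearly all actives have a fitted effect of over 65% in size; a mitochondrial uncoupler was the plate control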
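A stable cell line was treated with compounds at 5 concentrations for 24 hours, with CCCP as control. PINK1 levels and mitochondrial localization were measured by immunofluorescence with mitochondrial, cell and nuclear markers after fixation, read by laser-scanning cytometry.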
Sfp inh: qHTS Assay for Inhibitors of Bacillus subtilis Sfp phosphopantetheinyl transferase (PPTase); hit rate 3.5% among 310,000; Potency, µM, for inactives: max response, negative = inhibition, usual class: inhibitors; AID 1490, 2009; Biochemical Sfp PPTase activity, qHTS; 4'-phosphopantetheinyl transferase ffp (Bacillus subtilis), Q9F4F7; active = well fitted inhibition curve with a large enough effect; inconclusive = small, poorly fitted or top-dose-only effect, or another doubt; inactive = no such curve, though single readings can be large or run the other way;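 note: the enzyme is Sfp with the accession as filed and its product quenches rhodamine fluorescence; potency is the fitted concentration of half-maximal effect; 0% = enzyme reaction without inhibitor and -100% = no enzyme wells; top concentration of the series not given in the record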
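Compounds were incubated with enzyme (final 15 nM) for 15 min at room temperature before substrate addition started the reaction. Fluorescence at 525 nm excitation, 598 nm emission was recorded immediately and after 30 minutes.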
gsp agonist: qHTS for Agonist of gsp, the Etiologic Mutation Responsible for Fibrous Dysplasia/McCune-Albright Syndrome: qHTS; gsp mutant cells, cAMP HTRF, 30 min; control for the full effect not named in the record; Potency, µM (doses to about 76.9 µM), for the others: at the highest dose activation (cAMP increase), usual class: activators; hit rate 0.13% among 340,000; AID 624287, 2012; active = well fitted activation curve with a large enough effect; inconclusive = small, poorly fitted or top-dose-only effect, or another doubt; inactive = no such curve, though single readings can be large or run the other way; cell line not stated here;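 note: phosphodiesterase inhibitor Ro 20-1724 added with compounds to block cAMP breakdown; potency is the fitted concentration of half-maximal effect; nearly all actives have a fitted effect of over 60% in size; about a fifth of the inactives were tested at one dose only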
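Cells stably selected in G418 were plated at 2000/well, grown 16-24 hr, then given compounds in DMSO with the PDE inhibitor […] (300 uM solution added) for 30 min at 37C; cAMP was read by HTRF.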
Menin MLL FP FL: qHTS Assay for Inhibitors Targeting the Menin-MLL Interaction in MLL Related Leukemias: Competition With Fluorescein Labeled MLL-derived Peptide; AID 1766, 2009; FP activity change, % at 61.4 µM; 290,000 tested, under 10 active; Fluorescence polarization, fluorescein-MLL peptide displacement from menin; inconclusive = falling polarisation curve, or a change in total fluorescence; inactive = total fluorescence flat and polarisation flat or rising; no compound was filed as active; the % refers to the polarisation; negative = inhibition;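 note: % of control where 0% means no effect; inhibitors lower the polarisation; unlabelled MLL peptide was the positive control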
ClpP mod: qHTS Assay for Activators of ClpP; ATP-dependent Clp protease proteolytic subunit (Bacillus subtilis (strain 168)), P80244; purified B. subtilis ClpP, FRET peptide cleavage, 20 min; Potency, µM (series often up to 57.5 µM), for the others: top-dose activity change, negative = active; hit rate 1.9% among 340,000; AID 651965, 2013; active = well fitted falling curve with a large enough effect; inconclusive = small, poorly fitted or top-dose-only effect; inactive = no such curve, though single readings can be large or run the other way; note: potency is the fitted concentration of half-maximal effect; the source files actives as falling curves though it sought activators and does not explain the sign; nearly all actives have a fitted effect of over 65% in size; many hits overshoot -100%
Target sequence (P80244 whole entry, looked up): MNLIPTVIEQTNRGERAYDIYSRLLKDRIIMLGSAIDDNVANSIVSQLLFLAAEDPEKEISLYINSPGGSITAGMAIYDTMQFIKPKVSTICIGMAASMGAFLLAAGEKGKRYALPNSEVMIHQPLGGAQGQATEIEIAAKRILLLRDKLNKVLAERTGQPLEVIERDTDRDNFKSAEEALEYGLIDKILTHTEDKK
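Purified B. subtilis ClpP, 10 microg/mL final in Tris/HCl pH8 with KCl, BSA, glycerol and Tween-20, cleaved an Abz/nitrotyrosine-quenched decapeptide. Fluorescence (ex 320, em 430) was read at 0 and 20 min at room temperature. Delta was normalized to 5.8 microM ADEP and DMSO/no-enzyme controls.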
* hit, by the source's call; ? = inconclusive; . = no result given; [ ] = dose if it differs, or a comment.

SMILES	gsp antagonist	D2 agonist	PINK1 modulator	Sfp inh	gsp agonist	Menin MLL FP FL	ClpP mod
CC(=O)Oc1ccc(S(=O)(=O)c2ccc(OC(C)=O)cc2)cc1	-10%	7.7	0.8%	3%	3%[15.4 µM]	-6.7	?
Cn1nc(C(=O)NNC(=O)COc2ccccc2)c2ccccc2c1=O	3%	-0.9	-1.0%	9%	7%	8.5	-1.7%
CCCNC(=O)c1c(N)n(-c2ccc(S(N)(=O)=O)cc2)c2nc3ccccc3nc12	2%	-1.2	6.6%	-17%	-9%	2.3	?
COc1ccccc1NC(=O)C1=C(C)NC(=O)NC1c1ccc(C)cc1 (stereo unspecified)	0%	-3.1	1.0%	10%	15%	-1.5	0.1%
CC(C)C(C)NC(=O)CN1C(=O)NC2(CCCCCC2)C1=O (stereo unspecified)	11%	0.3	0.0%	26%	14%	0.4	-1.0%
Cc1cc2nc(-c3ccc(SCc4ccccc4C#N)nc3)[nH]c2cc1C	-6%	1.7	.	5%	2%	5.2	?
CCCNC(=O)C1(C)CCCN(Cc2ccc3ccccc3c2)C1 (stereo unspecified)	.	-3.8	1.7%	.	.	.	-3.2%
CCOC(=O)c1c(-c2ccc(OC)cc2)oc2cc(Br)c(O)cc12	-10%	2.2	6.8%	8%	?	-0.1	3.9%
O=C(CCn1cccc1)NCc1ccc(Cl)cc1	-1%	-1.5	1.0%	16%	-5%	-2.4	-0.3%
CN(C)CCCN1C(=O)C(O)=C(C(=O)c2cc3ccccc3o2)C1c1ccccc1 (stereo unspecified)	23%	-5.0	-0.1%	26%	?	2.7	-24%
O=C(CCS(=O)(=O)c1ccc(Br)s1)NCc1cccs1	5%	-2.2	0.7%[38.3 µM]	-5%	-14%	-1.1	0.2%
COc1ccc(CCn2c(N)c(C(=O)NCc3ccco3)c3nc4ccccc4nc32)cc1	-5%	0.9	-2.5%	?	-3%	7.2	32µM*
CC(CCc1ccccc1)NC(=O)CN(C)Cc1ccc(F)cc1 (stereo unspecified)	-4%	-2.3	0.6%	7%	-40%[inhibitor]	5.3	.
CCOC(=O)C1CCCN(C2=NC(=O)/C(=C/c3ccc(OC)cc3)S2)C1 (stereo unspecified)	-10%	3.3	-1.0%	7%	?	-0.5	-4.3%
CCO[C@H]1OC(C(N)=O)=C[C@@H](c2ccccc2)[C@@H]1CCCO	12%	-1.1	0.8%	14%	18%	-2.3	-2.9%
O=C(O)Cn1c2c(c3ccccc31)CSc1ccc(Cl)cc1-2	?	0.6	-1.3%	20µM*	-2%	?	.
COc1c(C)cc(Br)cc1C(=O)Nc1ccc(C)cc1[N+](=O)[O-]	2%	-1.2	7.2%	19%	-24%	6.4	-2.3%
Cc1ccccc1OCCN1CCCC1	2%	-5.0	-0.1%	-18%	-23%	-0.6	-0.7%
COc1ccccc1CNC(=O)CCN=C1NS(=O)(=O)c2ccccc21	-1%	-0.6	-0.6%	.	-75%[inhibitor]	.	-2.2%
Cn1cc(C(=O)NC2CCCCC2)c(=O)c2cc(S(=O)(=O)N3CCCC3)ccc21	-15%	-1.6	0.8%	11%	-2%	6.5	-4.7%
N#CC1=C(SCC(=O)c2ccc(Cl)cc2)NC2=C(C(=O)CCC2)C1c1ccco1 (stereo unspecified)	5%	-0.8	0.0%	45µM*	?	5.9	0.3%
CCCCN(CCCC)C(=O)CCS(=O)(=O)c1ccc2c(c1)n(C)c(=O)c(=O)n2C	0%	-3.3	0.5%	-1%	?	-9.1	-29%
O=C(CCS(=O)(=O)Cc1ccc(Cl)cc1)NCCc1ccccc1	3%	-3.5	-0.8%	-4%	-17%	-0.9	1.4%
COc1ccc([C@H]2CC(=O)C=C(c3ccc(Cl)c(C(F)(F)F)c3)C2)cc1	-1%	1.7	5.4%	.	-19%	.	0.8%
COc1cc(NC(=O)[C@H]2CSCN2C(=O)[C@@H]2CCC(=O)N2)cc(OC)c1OC	-10%	-4.3	1.3%	4%	-9%	.	-0.6%
COc1ccc(NS(=O)(=O)c2ccc(F)c(F)c2F)cc1S(=O)(=O)N1CCOCC1	1%	-2.0	2.5%	.	?	.	1.6%
COc1cccc(N2CCN(c3ccc4nnc(CCC(=O)N5CCC(C)CC5)n4n3)CC2)c1	0%	-1.5	-0.9%	6%	?	0.3	0.7%
COCCN(C(=O)COC(=O)CCOc1ccccc1)c1c(N)n(Cc2ccccc2)c(=O)[nH]c1=O	-15%	0.1	-4.3%	.	-29%	.	-3.1%
CCCCC(=O)Nc1ccc(C(=O)Nc2ccc3c(c2)OCO3)cc1	-1%	2.2	-5.8%[38.3 µM]	2%	-16%	1.4	-5.3%
CCOC(=O)CN(C(=O)CNC(=O)c1ccco1)C(C(=O)NC1CCCCC1)c1cccc(OC)c1 (stereo unspecified)	9%	-2.6	1.3%	21%	-16%	0.6	-0.7%
NC(=O)C1CCN(C(=O)CCSCc2ccccc2)CC1	-1%	-1.8	4.7%	4%	-21%	1.7	-0.2%
Cc1nc2c(C)cccc2c2c1CCN2c1ccccc1F	2%	-11	9.6%	8%	?	4.4	.
C/C(CC(=O)Nc1cc(C)ccn1)=N\NC(=O)c1ccc(C(C)(C)C)cc1	12%	13	2.7%	14%	-13%	-4.8	.
CN(C)c1ccc(C2SCCN2C(=O)c2ccc([N+](=O)[O-])cc2)cc1 (stereo unspecified)	0%	2.3	-1.9%	1%	-23%	0.5	-1.7%
CCNS(=O)(=O)c1ccc(CCC(=O)Nc2ccc3c(c2)OCCO3)cc1	6%	-3.3	-0.8%	-3%	-21%	0.5	-1.7%
C=CCSc1cc(C)nc2c(-c3ccc(Cl)cc3)c(C)nn12	0%	-7.8	3.3%[38.3 µM]	20%	-10%	-3.3	11%

4 compounds drawn at random from the list so far:
SMILES	gsp antagonist	D2 agonist	PINK1 modulator	Sfp inh	gsp agonist	Menin MLL FP FL	ClpP mod
CN(C)c1ccc(C2SCCN2C(=O)c2ccc([N+](=O)[O-])cc2)cc1 (stereo unspecified)	0%	2.3	-1.9%	1%	-23%	0.5	-1.7%
COCCN(C(=O)COC(=O)CCOc1ccccc1)c1c(N)n(Cc2ccccc2)c(=O)[nH]c1=O	-15%	0.1	-4.3%	.	-29%	.	-3.1%
COc1ccc(NS(=O)(=O)c2ccc(F)c(F)c2F)cc1S(=O)(=O)N1CCOCC1	1%	-2.0	2.5%	.	?	.	1.6%
NC(=O)C1CCN(C(=O)CCSCc2ccccc2)CC1	-1%	-1.8	4.7%	4%	-21%	1.7	-0.2%

Additional compounds follow.
SMILES	gsp antagonist	D2 agonist	PINK1 modulator	Sfp inh	gsp agonist	Menin MLL FP FL	ClpP mod
NC(=O)C1CCN(C(=O)CSCc2ccccc2Cl)CC1	6%	-2.1	0.0%	13%	21%	-7.9	1.0%
Cn1cc(/C=C(\NC(=O)c2ccccc2Cl)C(=O)N2CCOCC2)c2ccccc21	-6%	-1.0	0.3%	1%	-57%[inhibitor]	-0.8	-2.7%
O=c1[nH]ncn2cccc12	10%	-1.5	-2.1%	20%	4%	7.0	-5.5%
COc1cc(F)ccc1-c1csc(C(C)(O)c2ccccc2)n1 (stereo unspecified)	.	3.1	5.3%	.	.	.	-0.8%
COc1cc(OC)cc(C(=O)OCC(=O)Nc2ccc(N3CCCCC3)cc2)c1	1%	-0.2	8.6%	2%	-5%	0.0	-1.3%
COCCNc1ncncc1-c1ccccc1OC	.	.	0.0%	11%	.	1.9	.
CC(=O)Nc1ccc(S(=O)(=O)NNC(=O)COc2cccc(C)c2)cc1	-18%	-4.5	1.5%	79µM*	-17%	2.2	-0.6%
COCCNC(=S)NNc1ccccc1[N+](=O)[O-]	2%	1.4	1.5%	10µM*	-1%[15.4 µM]	0.1	.
C=CCN(C(=O)c1csnn1)C(C(=O)NCc1ccc(F)cc1)c1ccccc1F (stereo unspecified)	-8%	-0.8	-2.6%	9%	-7%	-0.2	.
CC(=NNC(N)=O)C1=C(O)C(C(C)C)NC1=O (stereo unspecified)	13%	3.7	0.7%	.	-13%	.	1.6%
CC1CN(c2ccc([N+](=O)[O-])nc2)CC(C)O1 (stereo unspecified)	.	5.0	1.4%	11%	0%[15.4 µM]	-3.8	.
CCCC(=O)Nc1nnc(-c2ccc3c(c2)OCO3)s1	12%	-2.6	5.0%	16%	-23%	-0.5	3.7%
O=C(NCc1ccccc1)C1CCCN(c2nc3ccsc3c(=O)s2)C1 (stereo unspecified)	-13%	-0.1	17%	9%	17%	3.2	.
Cc1ccccc1S(=O)(=O)NC(=O)C1(C)CCN1C(=O)Cc1cc(F)ccc1F (stereo unspecified)	.	-5.5	-0.4%	.	.	.	1.3%
COc1cc2c(OC)cccc2cc1C(=O)O	-2%	-1.2	1.1%[38.3 µM]	0%	15%	-0.6	16µM*
CCOC(=O)C1CCCN(Cc2nc(C3CC3)no2)C1 (stereo unspecified)	7%	-0.6	-1.6%	-15%	10%[15.4 µM]	0.2	.
O=C(O)c1cnn2c(C(F)F)cc(C3CC3)nc12	-15%	-4.1	3.1%[38.3 µM]	-13%	6%	0.8	0.6%
Cc1cc(C)n(C(=O)CNC(=O)c2ccc(Cl)cc2Cl)n1	13%	-4.4	1.3%	11%	-20%[15.4 µM]	-0.8	.
Cc1ccccc1OCC(=O)N/N=C/c1ccncc1	6%	0.5	1.3%	5%	-29%	-2.5	-0.6%
CCC(=O)Nc1ccc(C(=O)Cn2ncc(Cl)c(Cl)c2=O)cc1	-16%	4.0	-1.8%	-3%	36%	4.0	-1.0%

Compound activity (PubChem)
